# NS1 function inh = blocks influenza NS1 protein function. Potency, µM (doses to about 46.1 µM), for inactives: at the top dose activity, positive = more growth. S. cerevisiae slowed by influenza A NS1, growth recovery by OD600. 0.4% of 270,000 active. AID 2326; active means well fitted rising curve with a large enough effect; inconclusive means small, poorly fitted or top-dose-only effect; inactive means no such curve, though single readings can be large or run the other way; further: nearly all actives have a fitted effect of over 50% in size
#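 S. cerevisiae expressing influenza A NS1, grown in glucose, washed, then diluted 1:100 into pH 6.0 -URA galactose medium with 23 nl compound. Growth recovery read as OD600; NS1-free strain serves as control.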
# Cruzain noTriton = cruzain (T. cruzi) inhibition without detergent; P25779; purified cruzain, Z-FR-AMC fluorescence, no detergent; Potency, µM, inactives show max response, negative = inhibition, actives largely listed as inhibitors; 2.3% of 200,000 active; AID 1476;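 further: plate controls were enzyme without inhibitor for no effect and buffer without enzyme for full effect; nearly all actives have a fitted effect of over 40% in size; top concentration of the series not given in the record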
# Target sequence (P25779 123-467 limits assumed): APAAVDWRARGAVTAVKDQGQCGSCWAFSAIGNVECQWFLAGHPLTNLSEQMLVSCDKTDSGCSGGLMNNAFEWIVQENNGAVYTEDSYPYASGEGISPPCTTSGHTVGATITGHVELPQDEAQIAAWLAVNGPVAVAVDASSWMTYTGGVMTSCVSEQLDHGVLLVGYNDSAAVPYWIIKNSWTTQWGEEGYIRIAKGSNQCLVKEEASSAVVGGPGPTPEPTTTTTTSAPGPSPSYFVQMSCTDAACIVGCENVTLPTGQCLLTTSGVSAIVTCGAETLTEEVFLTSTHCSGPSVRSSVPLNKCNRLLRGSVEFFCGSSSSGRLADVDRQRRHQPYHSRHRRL
#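 Purified cruzain at 1.5 nM, pre-incubated 15 min with compound at room temperature in 100 mM sodium acetate pH 5.5, 5 mM DTT, 0.00005% Triton X-100. Reaction started with 2 uM Z-FR-AMC; AMC fluorescence increase over 60 s gives rate.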
# Marburg entry inh = inhibitors of Marburg virus binding or cell entry; Marburg virus pseudotyped entry inhibition, cell reporter; control for the full effect not named in the record; about a third of the inactives were read at about 46 µM; Potency, µM (top dose mostly 37.8 µM), for the others: at the highest dose activity change, negative = inhibition, most hits filed as inhibitors; 1.8% of 300,000 active; AID 540276; active = well fitted inhibition curve with a large enough effect; inconclusive = small, poorly fitted or top-dose-only effect, or effect the other way; inactive = flat fitted curve, though single readings scatter; tested in HEK293 cells; about a fifth of its hits are not listed in these tables; further: on the % scale 0 is the no-effect control and ±100 the full control effect; luciferase read-out
# Cruzain Triton = inhibitors of Trypanosoma cruzi cruzain with detergent | purified cruzain, Z-FR-AMC fluorescence, 0.01% Triton | Potency, µM, for inactives: max response, negative = inhibition, usual class: inhibitors | 0.43% of 200,000 active;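 further: plate controls were neutral wells for no effect and buffer without enzyme for full effect; nearly all actives have a fitted effect of over 40% in size; top concentration of the series not given in the record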
#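 Sodium acetate buffer (100 mM, pH 5.5) containing 5 mM DTT and 0.01% Triton X-100 hosted 1.5 nM cruzain and test compound for 15 min at room temperature. Cleavage of 2 uM Z-FR-AMC was then tracked by fluorescence.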
# RE007 growth inh = less growth of the S. pombe RE007 Vpr strain. S. pombe RE007 Vpr strain, BacTiter-Glo ATP luminescence, 24 h; control for the full effect not named in the record. Potency, µM (highest dose often 92.2 µM), for the others: at the highest dose activity change, negative = less growth. 0.21% of 360,000 active; active = well fitted falling curve with a large enough effect; inconclusive = small, poorly fitted or top-dose-only effect; inactive = no such curve, though single readings can be large or run the other way;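 further: on the % scale 0 is the no-effect control and ±100 the full control effect; nearly all actives have a fitted effect of over 50% in size; the assay follows cell death caused by Vpr and the record does not say whether a fall means rescue or toxicity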
#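 Fission yeast RE007 carrying one integrated HIV-1 vpr copy, seeded at OD 0.01 in PMG+AL medium with 23 nL pinned compound. Grown 24 h at 30 degrees; viability read by BacTiter-Glo luminescence after 5 min.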
# Lassa entry inh = blocks Lassa virus binding to or entry into cells. AID 540256. Lassa virus pseudotype entry inhibition, cell reporter; control for the full effect not named in the record. Potency, µM (top dose mostly 37.9 µM), for the others: at the highest dose activity change, negative = inhibition, usual class: inhibitors. 1.2% of 300,000 active; active means well fitted inhibition curve with a large enough effect; inconclusive means small, poorly fitted or top-dose-only effect, or effect the other way; inactive means flat fitted curve, though single readings scatter; tested in HEK293 cells; further: on the % scale 0 is the no-effect control and ±100 the full control effect; nearly all actives have a fitted effect of over 50% in size; luciferase read-out
# StopGo reporter = lowers the luciferase signal of an FMDV 2A StopGo reporter; human cells with a luciferase reporter of 2A StopGo recoding; control for the full effect not named in the record; Potency, µM (highest dose often 57.9 µM), without a hit: at the top dose signal change, negative = less light; 1.2% of 410,000 active; active = well fitted falling curve with a large enough effect; inconclusive = small, poorly fitted or top-dose-only effect; inactive = no such curve, though single readings can be large or run the other way; tested in HEK293T cells; further: on the % scale 0 is the no-effect control and ±100 the full control effect; nearly all actives have a fitted effect of over 45% in size; luciferase light after 4 h
# SARS PLpro yeast = blocks SARS-CoV papain-like protease in a yeast assay. AID 485353. 0.19% of 330,000 active. S. cerevisiae expressing SARS-CoV PLpro, growth rescue; control for the full effect not named in the record. Potency, µM (doses to about 32.9 µM), inactives show at the top dose activity, positive = growth rescue; active means well fitted rising curve with a large enough effect; inconclusive means small, poorly fitted or top-dose-only effect; inactive means no such curve, though single readings can be large or run the other way; further: 0% is about no effect; nearly all actives have a fitted effect of over 55% in size; growth read by luminescence after 48 h
# Active calls of the source: *; ? = inconclusive; . = not tested or not shown; & = joins results of further samples; [ ] = another dose, or the depositor's remark. Unless noted, the call rests on the fitted dose curve; in most records, active means well fitted curve in the direction sought with a large enough effect; inconclusive means small, poorly fitted or top-dose-only effect, or another doubt; inactive means no such curve, though single readings can be large; an effect the other way counts as inactive or inconclusive. Potency means the concentration at half of the fitted maximal effect.
SMILES,NS1 function inh,Cruzain noTriton,Marburg entry inh,Cruzain Triton,RE007 growth inh,Lassa entry inh,StopGo reporter,SARS PLpro yeast
Cc1ccc(C(=O)Nc2nc(-c3nnn(-c4cccc(C(F)(F)F)c4)c3C)ns2)cc1,.,?,.,2.3%,.,12%[46.1 µM],-21%,.
CCOC(=O)C1=C(C)Nc2ncnn2C1c1cccnc1 (configuration not stated),4%,-1%,-2%,-0.6%,-14%,-2%,12%,-1%
CCN(C(=O)c1cc(S(=O)(=O)N2CCc3ccccc32)cn1C)c1cccc(C)c1,.,-6%,.,-4.2%,.,?,-5%,.
COc1ccc2cc(CN(CC3CCCO3)C(=O)Nc3ccccc3)c(=O)[nH]c2c1 (configuration not stated),-2%,.,.,.,3%,.,4%,0%
COCC(=O)Nc1ccc2c(c1)OCC(=O)N2Cc1ccccc1F,-15%,.,.,.,2%,.,1%,3%
CC1(C)C=C(c2ccc(C(=O)O)s2)CC(C)(C)N1,11%,-7%,4%,1.7%,8%,0%,-9%,8%
C=CCn1c(SCC(=O)N2CC(=O)Nc3ccccc32)nc2scc(-c3cccs3)c2c1=O,1%,10µM*,?,-1.7%,-9%,15µM*,?,-2%
O=C(O)CN1C(=O)C(=O)N(Cc2ccc(Cl)c(Cl)c2)C1=O,-4%,.,.,.,-2%,.,-12%,0%
O=C(CSCc1ccc(Cl)cc1Cl)Nc1ccc(O)cc1C(=O)O,18%,.,.,.,11%,.,-8%,4%
Cc1cccc(CN(CC(=O)N/N=C/c2ccco2)S(=O)(=O)c2ccc(Cl)cc2)c1,20%,17%,-6%,-2.6%,12%,?,0%,-7%
CC1(C)CC(=O)N(c2ccc(C#N)cc2)C(=O)C1,12%,.,.,.,-13%,.,-15%,-1%
Cc1cccc(Nc2ncnc3ccc(Br)cc23)c1,-48%,.,?,.,-26%,-6%[46.1 µM],-19%,-4%
O=C(COC(=O)Cc1n[nH]c(=O)c2ccccc12)Nc1c(Cl)cccc1C(F)(F)F,.,.,-4%,.,6%,.,-21%,.
CCOC(=O)c1ccc(NC(=O)CCc2c(C)nc3cc(-c4ccc(OC)cc4OC)nn3c2C)cc1,.,-5%,-14%[46.1 µM],1.5%,.,?,-3%,.
COc1ccc(C(=O)N2CCCC(c3ccccc3)C2)cc1 (configuration not stated),-72%,17%,?,7.9%,-2%,4.5µM*,-1%,7%
CSc1ccc(CNc2ccccn2)cc1,-3%,-3%,?,2.4%,1%,-17%,-6%,-3%
COc1ccc(C(=O)CCc2ccc(OC)c(OC)c2)cc1,.,.,?,.,36%,-21%[46.1 µM],-13%,.
CCc1ccc(NC(=O)C2CC=CCC2C(=O)O)cc1 (configuration not stated),1%,-13%,8%,1.6%,-13%,5%,-10%,-4%
COC(=O)c1sccc1NC(=O)CSc1ccccc1NS(=O)(=O)c1ccc(F)cc1,16%,-6%,-6%,-5.7%,9%,7%,-2%,-2%
CSc1nnc(C)c(=O)n1COC(=O)/C=C/c1ccc2c(c1)OCO2,.,.,2%[46.1 µM],.,12%,5%[46.1 µM],-11%,0%
O=C(CSc1nc2c(sc3ccccc32)c(=O)n1CCc1ccccc1)NCc1ccco1,3%,5µM*,?,-0.3%,-4%,6%,18%,2%
Cc1nn(CCC(=O)Nc2cccc(C#N)c2)c(C)c1S(=O)(=O)N1CCC(C)CC1,.,-3%,.,-3.2%,.,3%[46.1 µM],-22%,.
CC(=O)c1cc2c(cc1N/C(=N/S(=O)(=O)c1ccc(C)cc1)c1ccc(Cl)cc1)OCO2,5%,?,9%&9%,-1.9%&-4.6%,0%,0%[46.1 µM],62%&50%[activator],10%
CN(C)S(=O)(=O)c1cccc(NC(=O)COC(=O)[C@H](Cc2ccccc2)NC(=O)c2ccco2)c1,.,.,-3%,.,5%,0%,-20%,.
Cc1cccc(C(=O)CC(=O)c2cc(Cl)ccc2O)c1,-183%,-2%,-82%,-3.2%,?,?,8%,-19%
Cc1ccc2nc(NC(=O)C3CCN(C(=O)c4ccc(F)cc4)CC3)sc2c1,22%,.,?,.,-7%,4%,0%,?
COc1ccc(CCNC(=O)C(=O)NCC2OCCN2C(=O)c2ccc(Cl)cc2)cc1 (configuration not stated),1%,.,.,.,-6%,.,0%,0%
Cc1c(Cl)cccc1NC(=O)[C@@]1(CC(=O)O)CC(/C=C/c2ccccc2)=NO1,7%,.,?,.,-17%,5%,8%,0%
CCC(=NCc1ccccc1)C1=C(O)C(C(=O)OC)C(C)(C)CC1=O (configuration not stated),-7%,9%,-19%,3.0%,-8%,4%,-16%,5%
Cn1c(C2=C(O)CN(Cc3ccccc3)C2=N)[n+](C)c2ccccc21,.,.,?,.,8%,17%,6%,0%
CCCSc1nc2ccccc2c(=O)n1-c1ccccc1OC,.,8%,.,-7.7%,.,13%[46.1 µM],-23%,.
O=C(Nc1cccc(S(=O)(=O)N2CCCCCC2)c1)C1=COCCO1,.,.,3%,.,4%,2%,24%,9%
COc1ccc(C2C(C#N)=C(N)Oc3n[nH]c(C)c32)cc1Cn1nnc2ccccc21 (configuration not stated),-38%,-20%,?,-6.4%,-14%,-33%,-20%,1%
N/C(=N\OC(=O)c1cccc(Cn2cc(C(F)(F)F)ccc2=O)c1)c1ccccc1,-3%,.,.,.,-1%,.,1%,0%
Cc1cccc(NC(=S)NC(=O)c2ccc(-c3ccccc3)cc2)n1,9%,.,?,.,-14%,?,31%[activator],-6%
Cc1c(Cl)cccc1NC(=O)CNC(=O)c1ccccc1F,-1%,4%,3%,2.3%,-10%,15%,3%,7%
COc1ccc(NC(=O)CSc2nccn2C)cc1S(N)(=O)=O,.,.,-4%[46.1 µM],.,-4%,0%,2%,1%
O=C(NC12CC3CC(CC(C3)C1)C2)c1cc(F)c(F)c(F)c1F,-9%,.,16%[46.1 µM],.,-9%,1%[46.1 µM],-27%,0%
COc1ccc(-c2cc(C(F)(F)F)nc(N)n2)cc1,2%,.,?,.,8%,-26%[46.1 µM],0%,1%
CCn1c(C(=O)NCCCc2ccccc2)cc2sccc21,-18%,-2%,?,-11%,0%,14%,7%,-24%

# Reformatted with values under each structure: entries from further up
# Results follow in this order: NS1 function inh	Cruzain noTriton	Marburg entry inh	Cruzain Triton	RE007 growth inh	Lassa entry inh	StopGo reporter	SARS PLpro yeast
COc1ccc(-c2cc(C(F)(F)F)nc(N)n2)cc1
  2%	.	?	.	8%	-26%[46.1 µM]	0%	1%
CCn1c(C(=O)NCCCc2ccccc2)cc2sccc21
  -18%	-2%	?	-11%	0%	14%	7%	-24%

# Four compounds from above, limited to Cruzain Triton, Lassa entry inh and NS1 function inh:
smiles	Cruzain Triton	Lassa entry inh	NS1 function inh
COc1ccc(C2C(C#N)=C(N)Oc3n[nH]c(C)c32)cc1Cn1nnc2ccccc21 (configuration not stated)	-6.4%	-33%	-38%
COc1ccc(NC(=O)CSc2nccn2C)cc1S(N)(=O)=O	.	0%	.
Cc1cccc(NC(=S)NC(=O)c2ccc(-c3ccccc3)cc2)n1	.	?	9%
O=C(NC12CC3CC(CC(C3)C1)C2)c1cc(F)c(F)c(F)c1F	.	1%[46.1 µM]	-9%

# Continuation:
SMILES,NS1 function inh,Cruzain noTriton,Marburg entry inh,Cruzain Triton,RE007 growth inh,Lassa entry inh,StopGo reporter,SARS PLpro yeast
COc1ccc(/C=C2\Oc3cc(OCC(=O)N4CCC(C(=O)O)CC4)ccc3C2=O)c(OC)c1OC,?,.,.,.,16%,.,-9%,-2%
Cc1nnc(NC(=O)C(c2ccccc2)c2ccccc2)s1,-2%,.,1%[46.1 µM],.,31%,1%,-6%,-20%
CCOC(=O)c1nn(-c2ccc(C)c(C)c2)c(=O)c(C#N)c1C,20%,.,.,.,3%,.,-7%,3%
CC1CCCN(C(=O)C2CCC(CNc3c(N4CCCCC4)c(=O)c3=O)CC2)C1 (configuration not stated),-1%,.,.,.,-10%,.,2%,2%
Nc1nc(CSc2nnnn2-c2ccc(F)c(Cl)c2)nc(N2CCOCC2)n1,13%,.,0%,.,-4%,9%,-30%,.
COC(=O)C(COC(=O)c1c(F)cccc1F)NC(=O)c1c(F)cccc1F (configuration not stated),-44%,.,.,.,6%,.,-8%,-5%
CCOC(=O)Cc1c(C)nc2c(-c3ccccc3)c[nH]n2c1=O,-4%,-1%,?,1.7%,-6%,1%,-23%,6%
CC(=O)Nc1ccc(S(=O)(=O)Oc2ccccc2N2CCCCC2)cc1,-5%,.,?,.,8%,?,-3%,-6%
CCOC(=O)CSc1nc(N2CCOCC2)c2c(c1C#N)CC(C(C)C)OC2 (configuration not stated),-1%,.,5%[46.1 µM],.,2%,1%[46.1 µM],-14%,-1%
COc1nc(NC(=O)c2ccc(F)cc2)nc(OC)c1-c1ccccc1,-17%,.,?,.,-3%,.,-18%,-6%
C/C(=N\NC(=O)c1cc(Cl)ccc1O)c1ccc(Br)s1,-4%,10µM*,?,-5.8%,17%,-13%,-21%,10%
Cc1cc(=O)nc2c3ccccc3n(C(C)C(=O)Nc3c(F)c(F)c(F)c(F)c3F)n12 (configuration not stated),.,.,5%,.,-7%,9%,-10%,1%
O=C(O)c1cc(N/N=C/c2cccnc2)ccc1Cl,5%,.,.,.,13%,.,-16%,0%
CCOc1ccc(Br)cc1CN(CC)CC,-2%,.,?,.,-6%,-8%[46.1 µM],12%,0%
CNC(=S)N1CCN(c2nc3ccccc3s2)CC1,0%,.,22%[46.1 µM],.,2%,.,35%[activator],0%
O=C(O)c1ccccc1-c1nc(-c2ccccc2)c(-c2ccccc2)[nH]1,0%,.,-8%[46.1 µM],.,9%,0%,-18%,0%
Cc1ccc(CS(=O)(=O)Cc2ccc(C(=O)NC3CC3)o2)cc1,18%,.,.,.,-2%,.,?,1%
Cn1cc(C(=O)NCc2ccccc2)c(=O)c2cc(S(=O)(=O)N3CCCCCC3)ccc21,.,-3%,.,-0.2%,.,-2%[46.1 µM],4%,.
CC(C)(C)C(=O)N1CCN(c2ccc([N+](=O)[O-])c(NCc3cccnc3)c2)CC1,1%,.,14%[46.1 µM],.,-8%,?,-8%,2%

# Screening data from PubChem.
